Screening data deposited in PubChem by National Center for Advancing Translational Sciences (NCATS).
VDR inh – vitamin D3 receptor (human) inhibition | P11473 | AID 504847 | VDR-SRC2-3 peptide fluorescence polarization, 2 h | Potency, µM, for inactives: max response, negative = inhibition, hits mostly inhibitors | 400,000 tested, 0.93% active; active means well fitted inhibition curve with a large enough effect; inconclusive means small, poorly fitted or top-dose-only effect, or another doubt; inactive means no such curve, though single readings can be large or run the other way; further: series mostly up to about 120 µM
Target sequence (P11473 whole entry, looked up): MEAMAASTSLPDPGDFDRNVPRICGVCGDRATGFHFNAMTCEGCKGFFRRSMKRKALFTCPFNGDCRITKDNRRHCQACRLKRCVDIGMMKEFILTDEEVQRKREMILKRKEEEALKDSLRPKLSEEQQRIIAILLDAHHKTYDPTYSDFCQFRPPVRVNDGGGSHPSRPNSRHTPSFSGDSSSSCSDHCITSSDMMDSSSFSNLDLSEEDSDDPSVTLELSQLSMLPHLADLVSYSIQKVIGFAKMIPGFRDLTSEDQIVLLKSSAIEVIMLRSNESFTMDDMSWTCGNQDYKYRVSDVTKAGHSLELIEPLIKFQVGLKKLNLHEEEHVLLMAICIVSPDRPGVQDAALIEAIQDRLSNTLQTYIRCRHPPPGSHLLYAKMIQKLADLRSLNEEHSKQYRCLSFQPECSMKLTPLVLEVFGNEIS
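Measured by FP: displacement of SRC2-3 coactivator peptide from VDR by library compounds, following a two-hour ambient incubation.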
Starred values were filed as active, the others as inactive; ? = inconclusive. On the % scale 0 is the no-effect control and ±100 the full control effect; potency means the concentration at half of the fitted maximal effect. A portion of the library (hit frequency here may not be typical).

smiles	VDR inh
CC(=O)NNC(=O)CSc1nnc(-c2ccccc2)c(-c2ccccc2)n1	-3%
COc1ccccc1CN1CC[C@@]2(CCCN(C(=O)c3cc(C(F)(F)F)cc(C(F)(F)F)c3)C2)C1	?
Cc1noc(C)c1S(=O)(=O)N1CCC(C(=O)NCCc2ccc(S(N)(=O)=O)cc2)CC1	15%
Cc1n[nH]c(C)c1CN(C)C(=O)c1cc(COc2ccc(F)c(F)c2)on1	-20%
Cc1ccc(C)n1-n1cnc2scc(-c3cccs3)c2c1=O	11%
CC1CN(c2ccc(Oc3ccccc3)cc2)c2nc3c(c(=O)[nH]c(=O)n3C)n2C1 (stereo unspecified)	-27%
Cc1ccc(N=C2SCCCN2C(=O)c2ccco2)cc1Cl	-2%
O=C(NCCCN1CCN(c2ccccc2)CC1)c1sc2ncccc2c1-n1cccc1	13%
COc1ccc(CNS(=O)(=O)c2ccc3c(c2)NC(=O)C(C)S3)cc1 (stereo unspecified)	-6%
COc1c(Cl)cc(Cl)cc1C(=O)Nc1cccc2cccnc12	12%
O=C(Cn1nc2ccccc2n1)N/N=C/c1cc(Cl)cc([N+](=O)[O-])c1O	9%
Cc1ccc(NC(=O)Nc2c(C)n(C)n(-c3ccccc3)c2=O)c(Cl)c1	-6%
FC(F)Oc1ccccc1C1CC(c2ccc(Br)s2)Nc2ncnn21 (stereo unspecified)	-6%
O=C(COC(=O)c1c(F)cccc1F)c1ccc[nH]1	0%
O=C(NCc1ccco1)c1cccnc1-c1nc2ccccc2s1	?
Cc1cccc(NC(=O)CSc2nnc(-c3ccccc3)n2N)c1C	-10%
CC(C)(C)c1ccc(C(=O)NN2CCOCC2)cc1	-18%
CCc1ccc(CCC(=O)Nc2ncc(Cc3ccccc3Cl)s2)o1	-29%
COc1cc(CCC(=O)OCC(=O)Nc2ccccc2C(C)C)cc(OC)c1OC	-5%
O=C(Cn1c(C(F)(F)F)nc2ccccc21)Nc1ccccc1C(=O)O	-8%
Cc1cc(C)c2nc(C)cc(N/N=C/c3ccc(O)cc3)c2c1	5%
NC(=O)[C@@H]1CC2(CC(c3cccc(NC(=O)COc4ccc(Cl)cc4)c3)=NO2)CN1C(=O)c1ccccc1 (stereo partly specified)	-11%
CN(c1ccccc1)c1nc(N)c(C#N)c(CC#N)c1C#N	2%
CSc1nsc(SCC(=O)Nc2ccc(F)cc2)n1	-4%
OCC1(CCc2ccccc2)CCN(Cc2ccc3nsnc3c2)CC1	18%
COc1ccc(S(=O)(=O)Nc2ccccc2C(=O)N2CCOCC2)cc1Cl	16%
O=C1COc2ccc(C(=O)c3ccccc3C(=O)NCc3ccco3)cc2N1	-15%
Cc1cc(-c2nnc(SCC(=O)Nc3nc(-c4ccccc4)cs3)o2)no1	-11%
Cc1nc(-c2coc3cc(OCC(=O)O)ccc3c2=O)cs1	2%
CCCCCNC(=O)C(=O)C1C(=O)Nc2ccccc21 (stereo unspecified)	-7%
Cc1cc(C)cc(NC(=S)NC2CC3CCCC(C2)N3C2CCCC2)c1 (stereo unspecified)	-4%
O=C(c1ccc(-c2ccccc2)cc1)N1CCN(c2ccccn2)CC1	-9%
Cc1ccc(SCC(=O)NNC(=O)C2CCCCC2)cc1	-8%
CC(=O)c1cccc(NC(=O)NC(C)c2ccc3c(c2)OCO3)c1 (stereo unspecified)	10%
CCOc1cc2[nH]c(=O)n(CCCCCC(=O)NC(C)CC)c(=O)c2cc1OCC (stereo unspecified)	7%
COc1ccc(NC(C)C(=O)Nc2ccc(C#N)cc2)cc1Cl (stereo unspecified)	18%
CCOc1ccc(S(=O)(=O)Nc2ccc(C(=O)N3CC(C)OC(C)C3)cc2)cc1 (stereo unspecified)	11%
CCCCSCCCNC(=O)C1CCN(Cc2nc(-c3ccc(CC)cc3)oc2C)CC1	-11%
S=C(Nc1ccc2cn[nH]c2c1)Nc1ccc(Cl)cc1Cl	?
CCCCn1c(Cc2ccccc2)nnc1SCC(=O)Nc1cc(C)on1	3%
CC1=NOC(=O)/C1=C\c1ccc(-c2ccc(Br)cc2)o1	?
O=C(CSc1nc2cc(C(=O)O)ccc2c(=O)n1-c1ccc(F)cc1)Nc1ccc(F)c(F)c1F	-15%
CC(OC(=O)Cc1ccc(F)cc1)C(=O)NCc1ccc2c(c1)OCO2 (stereo unspecified)	9%
CN(CC(=O)Nc1ccc(F)c(F)c1F)C(=O)c1nn(Cc2ccccc2)c(=O)c2ccccc12	-3%
CCCCc1cc(=O)oc2c(C)c(OCC(=O)NCc3ccccn3)ccc12	-28%
CCOc1ccc(-c2ccc(C=O)o2)c([N+](=O)[O-])c1	-19%
COc1ccc2ccccc2c1C1NC(=O)c2ccccc2N1 (stereo unspecified)	-19%
CCN(Cc1ccccc1)C(=O)CCc1nc(-c2ccc(C)cc2)no1	6%
CC(=O)C1=C(O)C(=O)N(Cc2cccnc2)C1c1ccccc1Cl (stereo unspecified)	11%
O=S(=O)(Nc1cc(Cl)ccc1-n1cncn1)c1ccc(F)cc1	-22%
N#Cc1ccc(Oc2ncccn2)cc1	12%
Cc1oc2ccc(O)c(CN(C)Cc3ccccc3)c2c1C(=O)Nc1cccc(Cl)c1C	1%
O=C(Nc1ccc(NC(=O)c2cc3ccccc3o2)cc1)c1ccccc1	-16%
Cc1ccc(C(=O)CSc2nc(C(C)C)nc3ccccc23)cc1	-3%
O=C(NCCC(=O)N1CCN(c2ccc(F)cc2)CC1)c1ccco1	-1%
CNC(=O)NC(=O)COC(=O)c1n[nH]c2ccccc12	7%
CC(=O)OC1=CN(Cc2ccccc2)S(=O)(=O)c2ccccc21	3%
O=C(CSc1nnc(-c2cccnc2)n1CCN1CCCCC1)Nc1cccc(Cl)c1	3%
COCCNC(=O)C1CC2Cn3c(nc4cc(Cl)c(Cl)cc43)C2N1C (stereo unspecified)	-9%
Cc1cccc(NC(=O)c2nc[nH]c2C(=O)N[C@H](C)c2ccccc2)c1	-1%

Continuation:
smiles	VDR inh
CCOc1cc(C#N)c(NC(=O)c2cccnc2)cc1OCC	11%
O=C(O)CN1C(=O)/C(=C2\C(=O)N(Cc3ccccc3Cl)c3ccccc32)SC1=S	-19%
Cc1[nH]n(-c2ccccc2)c(=O)c1C1(C(F)(F)F)C(=O)N(c2ccccc2)C2=C1C(=O)CC(C)(C)C2 (stereo unspecified)	-2%
CCOC(=O)Cc1csc(SCc2nc3ccccc3c(=O)[nH]2)n1	0%
COc1cc(OC)cc(C(=O)NCC2CCCN(C(=O)c3csc(C(C)C)n3)C2)c1 (stereo unspecified)	-9%
COc1ccc(-c2ccc(C#N)c(OC(=O)c3c(Cl)cccc3Cl)n2)cc1	-2%
O=C(c1ccco1)N1CCC2(CCCN(c3ccccn3)C2)CC1	?
Cc1cccc(/C=N/NC(=O)c2cc(Br)ccc2OCc2ccccc2)n1	1%
Cc1c(Cl)cccc1NC(=O)CSc1nc(=O)[nH]c2c1CCCC2	3%
CCCCN1CCC(CN2C(=O)C(=O)NC[C@@H]2Cc2ccccc2)CC1	-30%
Nc1ccc(C(=O)OCc2nc3ccccc3s2)cc1	-11%
O=C(NC1(C(=O)NC2CCCC2)CCCCC1)c1ccc2c(c1)OCO2	-3%
CCOC(=O)C(C)Oc1cccc2c(=O)n(CC(=O)N3CCc4ccccc43)ccc12 (stereo unspecified)	8%
COc1cccc(CN2C[C@]34C=C[C@@H](C[C@@H]3S2(=O)=O)O4)c1	-4%
Cc1ccc(OCC(=O)N2CCC(C)CC2)c([N+](=O)[O-])n1	-4%

Three entries already listed, sorted by their value in VDR inh, rising:
| molecule | VDR inh |
| --- | --- |
| COc1ccc(-c2ccc(C#N)c(OC(=O)c3c(Cl)cccc3Cl)n2)cc1 | -2% |
| Cc1c(Cl)cccc1NC(=O)CSc1nc(=O)[nH]c2c1CCCC2 | 3% |
| CCOc1cc(C#N)c(NC(=O)c2cccnc2)cc1OCC | 11% |

(next part)
smiles	VDR inh
O=S(=O)(Nc1ccc2oc(-c3ccccc3)nc2c1)c1ccccc1	2%
CC(=O)NCCCc1c[nH]c2ccc(Cl)cc12	-2%
O=S(=O)(NC1CCCC1)c1ccc(S(=O)(=O)NC2CCCC2)cc1	-7%
CSc1nc(C)cc(/C=C\c2ccccc2)c1C#N	-4%
C=C1C(C(=O)N2CCN(C)CC2)C1C(=O)N1CCN(C)CC1 (stereo unspecified)	0%
O=C1C2C3CC(C(Br)C3Br)C2C(=O)N1c1nccs1 (stereo unspecified)	-2%
CC(C)CN(C(=O)COC(=O)CNC(=O)c1ccccc1F)C1CCS(=O)(=O)C1 (stereo unspecified)	15%
Cn1cnc2c(=O)oc3ccc(S(=O)(=O)N4CCN(c5ccccc5F)CC4)cc3c21	9%
Cc1ccc(C(=O)Nc2ccc(Cl)cn2)cc1S(=O)(=O)N1CCOCC1	7%
COC(=O)C1CC(=O)N(Cc2ccccc2)C1 (stereo unspecified)	1%
CCN1C[C@@H]2[C@@H]3C(=O)N(Cc4ccccc4)C(=O)[C@@H]3[C@](Cc3ccccc3)(C1=O)N2C(=O)c1ccc(Cl)c(Cl)c1	-2%
CCOC(=O)C1=C(O)/C(=C/c2cn(CC(=O)NCC3CCCO3)c3ccccc23)SC1=Nc1ccc(C)cc1 (stereo unspecified)	-7%
O=C(NC1=NCCS1)c1sc2cc(Cl)cc(Cl)c2c1Cl	-11%
COc1ccccc1CNS(=O)(=O)c1ccc2c(c1)NC(=O)CS2	-1%
O=C(Cn1nnc(-c2ccccc2)n1)N/N=C/c1cccc([N+](=O)[O-])c1O	-11%

A different layout for part of the listing above.
CCN1C[C@@H]2[C@@H]3C(=O)N(Cc4ccccc4)C(=O)[C@@H]3[C@](Cc3ccccc3)(C1=O)N2C(=O)c1ccc(Cl)c(Cl)c1
  VDR inh: -2%

CCOC(=O)C1=C(O)/C(=C/c2cn(CC(=O)NCC3CCCO3)c3ccccc23)SC1=Nc1ccc(C)cc1 (stereo unspecified)
  VDR inh: -7%

O=C(NC1=NCCS1)c1sc2cc(Cl)cc(Cl)c2c1Cl
  VDR inh: -11%

COc1ccccc1CNS(=O)(=O)c1ccc2c(c1)NC(=O)CS2
  VDR inh: -1%

Continuation.
smiles	VDR inh
O=C(Cn1cnc2c(cnn2-c2ccccc2)c1=O)N1CCN(c2ccc(F)cc2)CC1	-7%
CN(C(=O)CSc1nc2ccccc2n1CC(=O)N(C)C1CCCCC1)c1ccc(F)cc1	-3%
Cc1cnccc1CN(C)Cc1nc(Cc2ccccc2Cl)no1	3%
C=CCNC(=O)c1onc(CSc2ccc(C)c(C)c2)c1C(=O)O	-2%
CCCCOC(=O)C1=C(C)NC2=C(C(=O)CCC2)C1c1cc(OC)ccc1OC (stereo unspecified)	10%
CN(CC/C=C1/c2ccccc2CSc2ccccc21)CCCO	-1%
CCOC(=O)c1ccc(NC(=O)c2nc(SCc3ccc(F)cc3)ncc2Cl)cc1	-10%
Cc1ccc(S(=O)(=O)N2CCN(C(=O)CN3C(=O)c4ccc([N+](=O)[O-])cc4C3=O)CC2)c(C)c1	-13%
COc1ccc(OC)c(S(=O)(=O)N2CCC(C(=O)Nc3ccccc3)CC2)c1	7%
O=C(O)c1ccccc1C(=O)NC1CCCCNC1=O (stereo unspecified)	-16%
CC1CCc2nn(CC(=O)NCCCN3CCCCC3)cc2C1 (stereo unspecified)	20%
Cc1ccccc1CN(C)Cc1cc(=O)oc2c(C)c(C)ccc12	-4%
CCc1sc(N(C(=O)Cc2ccccc2)c2ccccc2F)nc1-c1ccc(C)cc1	-7%
CCc1nnc(NC(=O)COC(=O)CN2C(=O)c3ccccc3C2=O)s1	-6%
CCn1cc(/C=C/C(=O)Nc2ccc(C)cc2Br)cn1	0%
CCN=C1NN=C(c2c[nH]c3ccccc23)CS1	-12%
Cc1cc(O)c(C(C)C)cc1N=C1CSC(=O)N1	-15%
CC(C)(C)C1CCc2c(sc3nc(SCC(=O)O)nc(N)c23)C1 (stereo unspecified)	-6%
Cc1ccc(-c2cc(C(=O)Oc3ccccc3)c3cccc(C)c3n2)cc1	-6%
Cc1cn(CC(=O)NCc2ccc(N(C)C)cc2)c(=O)[nH]c1=O	-6%
COc1cc(C(=O)NCCC(=O)NC2CCCCC2)cc(OC)c1OC	-7%
CCN(c1ccccc1)S(=O)(=O)c1cc(NC(=O)Nc2ccccc2C#N)ccc1Cl	0%
COc1ccc(-n2ccnc(NCc3ccccc3Cl)c2=O)cc1OC	1%
COC(=O)NNC(=O)C12CC3CC(CC(C3)C1)C2	18%
CCOC(=O)CC1=NN(c2ccccc2)C(=O)C1=c1sc(=C2SC(C)=C(C)N2CC)c(=O)n1CC	0%
O=C1CSC(=S)N1c1cccc(Br)c1	-5%
Cc1ccc(CNC(=O)Nc2cc(C(=O)NCc3ccc(C(C)C)cc3)ccc2N2CCCC2)cc1	2%
FC(F)(F)c1ccccc1-c1cncnc1Nc1ccccc1	?
O=C(Nc1cccnc1)c1ccc(N2CCOCC2)c([N+](=O)[O-])c1	-12%
CC1(C)CC(=NO)CC(C)(C)N1	-9%
Cc1ccc(C)c(NC(=S)NNC(=O)c2csc3c2CCC(C)C3)c1 (stereo unspecified)	-1%
Cc1cccc(C)c1NC(=O)CSc1nnc([C@@H]2CCCN2C(=O)OC(C)(C)C)o1	9%
CC(=O)Nc1cc2c3c(c1)CCN3C(=O)CC2	-10%
CCCc1cc(=O)oc2cc(OCC(=O)NCCc3c[nH]c4ccc(OC)cc34)ccc12	10%
COCCSc1ccccc1C(=O)NCCc1ccccc1	-2%
CCOC(=O)CN1C(=N)N(c2nc(NC(C)C)nc(NC(C)C)n2)CC1=O	12%
